VACV mCherry inh – qHTS for Stage-Specific Inhibitors of Vaccinia Orthopoxvirus: mCherry Reporter Primary qHTS. 310,000 tested, 0.63% active. Vaccinia virus mCherry reporter infection, fluorescence; about a quarter of the inactives have no number. Potency, µM (highest dose often 36.5 µM), inactives show top-dose activity change, negative = inhibition, actives largely listed as inhibitors; active = well fitted inhibition curve with a large enough effect; inconclusive = small, poorly fitted or top-dose-only effect; inactive = no such curve, though single readings can be large or run the other way; tested in A549 cells; also: nearly all actives have a fitted effect of over 35% in size; inactives centre near -10
Vaccinia Venus – qHTS for Stage-Specific Inhibitors of Vaccinia Orthopoxvirus: Venus Reporter Primary qHTS. Vaccinia virus Venus reporter expression, fluorescence. Potency, µM (titrated, usually from 36.5 µM), for the others: at the highest dose activity change, negative = inhibition, hits mostly inhibitors. AID 720580, 2013. 330,000 tested, 0.46% active; active means well fitted inhibition curve with a large enough effect; inconclusive means small, poorly fitted or top-dose-only effect; inactive means no such curve, though single readings can be large or run the other way; tested in A549 cells; also: nearly all actives have a fitted effect of over 30% in size; inactives centre near -10
Starred values were filed as active, the others as inactive; i = inactive; ? = inconclusive; . = no result given; [ ] = another dose, or the depositor's remark. % is scaled to controls: 0 for no effect and ±100 for the full control effect; potency is read from the fitted curve at half-maximal effect.

Molecule | VACV mCherry inh | Vaccinia Venus
CC(C)CN(C(=O)COC(=O)c1ccc(-c2ccccc2)cc1)C1CCS(=O)(=O)C1 (centres undefined) | -2% | -11%
Cc1ccc(Oc2ncccc2C(=O)NCC(=O)O)cc1 | -3% | 2%
O=C(Cc1ccccc1)Nc1ccc(NC(=O)c2ccco2)nc1 | -18% | -7%
Cc1cn2c(=O)cc(COC(=O)c3cccc(NC(=O)C(C)Oc4ccccc4)c3)nc2s1 (centres undefined) | i | -15%
N/C(=N/O)c1nc(N2CCCC2)nc(N2CCCC2)n1 | -20% | -21%
Cc1ccc(C(=O)Nc2ccc(OCc3cc(=O)n4c5c(sc4n3)CCCC5)cc2)cc1 | 3% | -9%
COc1ccc(C2CC(=O)c3cc(-c4nc(-c5cccc(Cl)c5)cs4)c(=O)[nH]c3C2)cc1OC (centres undefined) | 0% | 14%
Cc1ccc(S(=O)(=O)/N=C(\N)Nc2nc(C)c3ccccc3n2)cc1 | -15% | -28%
COC(=O)C1CN(C(=O)C(C)Oc2ccc(F)cc2)c2ccccc2O1 (centres undefined) | -19% | -14%
c1ccc(-c2cc3c(N4CCN(c5ncccn5)CC4)ncnc3s2)cc1 | -10% | -2%
Cc1cccc(S(=O)(=O)NC(=O)C2(C)CCN2C(=O)c2sccc2C)c1 (centres undefined) | i | -8%
CCCn1nc(C(=O)Nc2nc3ccccc3[nH]2)c2ccccc2c1=O | i | -4%

Following part
Molecule | VACV mCherry inh | Vaccinia Venus
CCN(CC)c1ccc(NS(=O)(=O)c2cc(-c3cc(C)no3)ccc2C)c(C)c1 | -12% | -10%
O=C(O)c1ccc(OC(F)(F)C(F)C(F)(F)F)cc1 (centres undefined) | -17% | -6%
O=C(NC1CCCc2ccccc21)c1ccc2c(c1)sc1nc(-c3ccc(F)cc3)cn12 (centres undefined) | ? | ?
O=C(NCc1ccccn1)[C@@H]1C[C@H]1[C@@H](NP(=O)(c1ccccc1)c1ccccc1)c1ccccc1 | i | -9%
Cn1cnc2c(N/N=C/c3cccs3)ncnc21 | -6%[7.34 µM] | -19%[7.34 µM]
CCCCn1c(N)c(N(CC(C)C)C(=O)CN(C)S(=O)(=O)c2ccc(NC(C)=O)cc2)c(=O)[nH]c1=O | -5% | 1%
Cc1nc2c(=O)n(C)c(=O)n(C)c2nc1Cl | ? | -21%
COc1cc(-c2cc3n(C)c(C)c(CCC(=O)NC4CCC(C)CC4)c(=O)n3n2)cc(OC)c1OC (centres undefined) | -13% | -3%
O=C(c1ccc[nH]c1=S)N1CCN(S(=O)(=O)c2ccc(Br)cc2Cl)CC1 | -18% | -13%
O=[N+]([O-])c1ccc2nc(CCCO)[nH]c2c1 | -15% | -14%
COc1ncnc2c1N[C@@](C)(O)c1c(F)c(F)c(F)c(F)c1S2 | . | -17%
CSc1ccccc1NC(=O)c1cccs1 | . | -3%

The results go on.
Molecule | VACV mCherry inh | Vaccinia Venus
CN1CCN(CCCN(Cc2ccco2)C(=S)Nc2ccc(Cl)cc2)CC1 | -27% | -28%
COc1ccc(-c2ccc(/C=N/N3C(=O)C4C5C=CC(C6CC56)C4C3=O)o2)c([N+](=O)[O-])c1 (centres undefined) | -5% | -3%
O=C(Cn1cc(S(=O)(=O)N2CCN(c3ccccc3F)CC2)c2ccccc2c1=O)NCCCN1CCCCCC1 | ? | -13%
O=C1NC[C@@H](CCCCN2C[C@H](Cc3ccc(O)cc3)N(CCC3CCCCC3)C(=O)C2=O)N(CCC2CCCCC2)C1=O | i | -8%
O=C(NCc1ccc(F)cc1)c1cc(C2CCCCN2C(=O)C2CCCCC2)on1 (centres undefined) | 7% | -14%
Cc1cc(C)c2nc(N3CCN(C(=O)c4cccs4)CC3)sc2c1 | i | -12%
COc1ccc(OC)c(S(=O)(=O)N2CCCC(C(=O)N3CCOCC3)C2)c1 (centres undefined) | -7% | 3%
Cc1cccc(OCC(O)CN2CC2)c1 (centres undefined) | -1% | -14%
CCOC(=O)c1ccc(NC(=O)CN2CCN(C(=O)c3ccco3)CC2)cc1 | -8% | -12%
COC(=O)C(CC(C)C)NC(=O)c1ccc([N+](=O)[O-])c(C)c1 (centres undefined) | -14% | -11%
CCCCn1c(N)c(N(CCC(C)C)C(=O)C2CC(=O)N(c3ccc4c(c3)OCCO4)C2)c(=O)[nH]c1=O (centres undefined) | -3% | -15%
CN1CCCC(CC2c3ccccc3Sc3ccccc32)C1 (centres undefined) | -18% | -29%

Compounds from the list above containing a Cl atom, in the order listed:
Molecule | VACV mCherry inh | Vaccinia Venus
COc1ccc(C2CC(=O)c3cc(-c4nc(-c5cccc(Cl)c5)cs4)c(=O)[nH]c3C2)cc1OC (centres undefined) | 0% | 14%
Cc1nc2c(=O)n(C)c(=O)n(C)c2nc1Cl | ? | -21%
O=C(c1ccc[nH]c1=S)N1CCN(S(=O)(=O)c2ccc(Br)cc2Cl)CC1 | -18% | -13%
CN1CCN(CCCN(Cc2ccco2)C(=S)Nc2ccc(Cl)cc2)CC1 | -27% | -28%

Next results follow.
Molecule | VACV mCherry inh | Vaccinia Venus
CN1CCN(C(=O)CN(C)S(=O)(=O)c2cc(Cl)ccc2Cl)CC1 | i | 0%
COc1cc(CNCCc2ccc3c(c2)OCO3)cc(OC)c1OC | -15% | -3%
Cc1c(C(=O)O)oc2c3c(ccc12)OCCO3 | -20% | -9%
Cc1cc(C)cc(NC(=O)Cn2c(=O)oc3cc(S(=O)(=O)N4CC(C)CC(C)C4)ccc32)c1 (centres undefined) | ? | ?
Cc1ccc(-c2cc(C(=O)Nc3ccncc3)c3ccccc3n2)cc1 | -10% | 1%
CN(C)c1ccc(/C=C/c2ccnc3ccccc23)cc1N | -2% | -12%
C[C@@H](NC(=O)c1nc[nH]c1C(=O)OCc1ccccc1)c1ccccc1 | -26% | ?
O=C(NCc1ccccc1)N1CCc2c(sc3c2CCCC3)C1c1ccccc1 (centres undefined) | ? | ?
COc1ccc(OC)c(N2C(=O)CC(NNC(=O)c3ccc4c(c3)OCO4)C2=O)c1 (centres undefined) | -22% | 12%
CCOC(=O)C1CCN(C(=O)c2[nH]c(C(F)(F)F)nc2-c2ccccc2)CC1 | i | -13%
O=C(Cc1ccc([N+](=O)[O-])cc1)OCc1ccc([N+](=O)[O-])cc1 | -20% | -3%
COc1ccc(-n2cc(-c3ccccc3)nc2SCC(=O)Nc2ccccc2C)cc1 | -17% | -12%

Some of the entries so far, with values under each structure.
Every second line gives: VACV mCherry inh, Vaccinia Venus
> COc1ccc(-n2cc(-c3ccccc3)nc2SCC(=O)Nc2ccccc2C)cc1
    -17%, -12%
> C[C@@H](NC(=O)c1nc[nH]c1C(=O)OCc1ccccc1)c1ccccc1
    -26%, ?
> Cc1c(C(=O)O)oc2c3c(ccc12)OCCO3
    -20%, -9%

(list continues)
Molecule | VACV mCherry inh | Vaccinia Venus
COc1ccc(-c2cc3ccc(O)c(CN4CCCC4)c3oc2=O)cc1OC | -12%[7.34 µM] | -5%[7.34 µM]
CC(C)c1ccc(NNC(=O)C2CCC2)cc1 | -15% | -4%
CCN(CC(=O)Nc1ccc(NC(C)=O)cc1)C(=O)c1ccccc1CCc1ccccc1 | -27% | -12%
O=C(CC1Oc2ccc(Cl)cc2NC1=O)NCc1ccccc1 (centres undefined) | -18% | -9%
O=C(c1ccco1)N(Cc1ccco1)Cc1cc2ccccc2[nH]c1=O | -8% | 3%
COc1ccc(CCC(=O)NCc2ccc3c(c2)CCN3C(=O)c2cccc(C)c2)cc1 | -20% | ?
CCOc1ccc(CCNC(=O)c2cccs2)cc1OCC | 2% | 4%
CCOC(=O)C(CC)/C(C)=N/NC(=O)c1ccccc1[N+](=O)[O-] (centres undefined) | i | -1%
CCc1nnc2c3ccccc3nc(N3CCN(c4cc(Cl)ccc4C)CC3)n12 | -12% | -15%
Cc1ccc(-n2c(-c3ccccc3)c[n+]3c2CCC3)cc1 | -14% | 5%
Cc1ccc(C2CC(c3ccccc3Cl)n3nc(N)nc3N2)cc1 (centres undefined) | -13% | -2%
COc1ccccc1NC(=O)Nc1ccnn1Cc1cccs1 | -3% | ?

The list goes on.
Molecule | VACV mCherry inh | Vaccinia Venus
O=C(Nc1ccc2c(c1)OCO2)c1cc(C2CCCCN2C(=O)CCc2ccccc2)on1 (centres undefined) | -11% | -5%
CCn1cc(C(=O)N2CCN(Cc3ccc4c(c3)OCO4)CC2)c2cc(OC)c(OC)cc2c1=O | -13% | -18%
Cc1c(Cl)cccc1NC(=O)Nc1nnc(N(C)C2CCCCC2)s1 | -13% | -14%
Cc1cc(C)c(C(=O)COC(=O)c2cc([N+](=O)[O-])ccc2NCCO)cc1C | -7% | -26%
CC(C)[C@@H](C(=O)N1CCN(C(=O)OC(C)(C)C)CC1)n1cc(CCO)nn1 | i | 0%
Cc1cccn2c(=O)c3cc(C(N)=S)c(=N)n(CCCOC(C)C)c3nc12 | -15% | -13%
Cc1cc(C(=O)N/N=C/c2c(C)nn(-c3ccccc3)c2Cl)n[nH]1 | i | -5%
CC1(C)OC2CC3C4CC=C5CC(O)CCC5(C)C4CCC3(C)C2(C(=O)CO)O1 (centres undefined) | 0% | -5%
CC(=O)c1ccc(NC(=O)c2sc(-n3nc(C)c(Cc4ccccc4)c3C)nc2C)cc1 | -29% | -24%
Cc1nc2ccccc2n1CCc1nc2c3ccccc3nc(SCC(=O)Nc3cccc(C(F)(F)F)c3)n2n1 | -17% | ?
COc1ccccc1C(=O)NC1CCN(C(=S)NCCc2ccccc2)CC1 | -14% | -20%
O=C(NNc1nc2c(F)cc(F)cc2s1)C1=COCCO1 | -12% | -12%

Shown with two lines to a compound: entries from further up
The line under a structure holds: VACV mCherry inh | Vaccinia Venus
O=C(NNc1nc2c(F)cc(F)cc2s1)C1=COCCO1
  -12% | -12%
O=C(Nc1ccc2c(c1)OCO2)c1cc(C2CCCCN2C(=O)CCc2ccccc2)on1 (centres undefined)
  -11% | -5%
Cc1nc2ccccc2n1CCc1nc2c3ccccc3nc(SCC(=O)Nc3cccc(C(F)(F)F)c3)n2n1
  -17% | ?

(list continues)
Molecule | VACV mCherry inh | Vaccinia Venus
CCc1ccc(NC(=O)C(=O)c2ccccc2NC(C)=O)cc1 | -11% | -23%
CC1(C(=O)NS(=O)(=O)Cc2cccc(Cl)c2)CCN1C(=O)C1(c2ccc(Cl)cc2)CC1 (centres undefined) | i | 2%
CC1(C(=O)NS(=O)(=O)c2cccs2)CCN1C(=O)c1cccc(F)c1 (centres undefined) | 52%[activator] | -1%
CC(C)CC1C(=O)N(Cc2cn(CCC3OCCCO3)nn2)CCS(=O)(=O)N1Cc1ccc(-c2ccncc2)cc1 (centres undefined) | ? | -21%
COc1ccc(-c2oc3ccc(N4CCOCC4)cc3c2C#CCO)cc1 | 5.6µM* | ?
CCCCNC(=O)c1nc(C2CCN(S(=O)(=O)c3ccccc3C(F)(F)F)CC2)oc1-c1cccc(C(F)(F)F)c1 | i | 1%
CC(C)C[C@H]1COc2cccc(N3CCSCC3)c2S(=O)(=O)N1 | i | -4%
CCC(CO)Oc1cc(NCc2ccncc2)c2ncn(C(C)C)c2c1 (centres undefined) | -1% | -3%
O=C(c1ccc(Cn2c(=S)[nH]c3ccc(N4CCOCC4)cc3c2=O)cc1)N1CCC(N2CCCCC2)CC1 | -2% | -6%
COc1ccc(CC(=O)N2CCCc3ccccc32)cc1 | -18% | -4%
COCCn1c(CCC(=O)Nc2ccc(OC)c(OC)c2)nc2cccnc21 | 1% | 3%
CC(OC(=O)c1ccc(=O)n(Cc2ccccc2)n1)C(=O)Nc1cccc(Cl)c1 (centres undefined) | -10% | -13%

The listing continues:
Molecule | VACV mCherry inh | Vaccinia Venus
O=C(Nc1ccc(NC(=O)c2ccco2)c(Cl)c1)c1ccccc1 | i | ?
Cc1cccc(NC(=O)c2cc3ccccc3c(=O)o2)n1 | i | -2%
CCn1c(=NC(=O)c2ccc(S(=O)(=O)N(C)C)cc2)sc2cccc(OC)c21 | -5% | -8%
CCc1ccccc1S(=O)(=O)Cc1ccc(C(=O)N2CCN(c3ccccc3OC)CC2)o1 | 24% | 2%
Cc1cc(C)c(NC(=O)C2CCN(c3nn4c(=O)cc(C)nc4s3)CC2)c(C)c1 | -12% | -18%
CCCC(=O)NC(c1ccc(Cl)cc1)c1ccc2cccnc2c1O (centres undefined) | ? | ?
O=C(NCCc1ccccc1)c1ccc2c(c1)CCN2S(=O)(=O)c1ccccc1 | -6% | -22%
COc1cccc(/C=C2/SC(=O)N(CC(=O)N3CCc4ccccc4C3)C2=O)c1OCC(=O)O | . | -3%
COc1ccc(C(=O)OCn2nnc3ccccc3c2=O)cc1[N+](=O)[O-] | 1% | -5%
Cc1ccc(NC(=O)COC(=O)Cc2cccs2)cc1S(=O)(=O)N1CCOCC1 | -13% | -8%
O=C(CSc1n[nH]c(=O)n1Cc1ccccc1)Nc1ccc(F)c(F)c1F | i | -11%
Cc1ccc(CNc2nc(-c3ccco3)nn2C(=O)c2ccccc2[N+](=O)[O-])cc1 | -2% | -2%
Cc1ccc(S(=O)(=O)NC(CC(=O)O)c2ccc(F)cc2)cc1 (centres undefined) | i | -12%
C=C(C)C(=O)Nc1cccnc1Oc1ccc(F)cc1 | ? | -23%
C=CCNC(=O)NC(=O)COC(=O)CNS(=O)(=O)c1ccc(F)c(F)c1F | i | -6%

Source: PubChem BioAssay (National Center for Advancing Translational Sciences (NCATS))
